# Screening data (PubChem)
# Vaccinia Venus – inhibitors of vaccinia virus (Venus reporter); AID 720580; Vaccinia virus Venus reporter expression, fluorescence; 330,000 compounds, 0.46% hits; Potency, µM (doses to about 36.5 µM), inactives show top-dose activity change, negative = inhibition, actives largely listed as inhibitors; active means well fitted inhibition curve with a large enough effect; inconclusive means small, poorly fitted or top-dose-only effect; inactive means no such curve, though single readings can be large or run the other way; tested in A549 cells; note: nearly all actives have a fitted effect of over 30% in size; inactives centre near -10
# Vaccinia mCherry – inhibitors of vaccinia virus infection (mCherry reporter signal). 310,000 compounds, 0.63% hits. AID 720579. Vaccinia virus mCherry reporter infection, fluorescence; about a quarter of the inactives have no number. Potency, µM (highest dose often 36.5 µM), inactives show at the top dose activity change, negative = inhibition, actives largely listed as inhibitors; active = well fitted inhibition curve with a large enough effect; inconclusive = small, poorly fitted or top-dose-only effect; inactive = no such curve, though single readings can be large or run the other way; tested in A549 cells; note: nearly all actives have a fitted effect of over 35% in size; inactives centre near -10
# An asterisk follows results filed as active; i = inactive; ? = inconclusive; nt = not tested or not shown; & = joins results of further samples; [ ] = dose if it differs, or a comment. % is set by controls: 0 for no effect and ±100 for the full control effect; potency is the fitted concentration of half-maximal effect.
# The line under a structure holds: Vaccinia mCherry | Vaccinia Venus
CCC1(c2ccccc2)C(=O)N(COC)C(=O)N(COC)C1=O
    -13% | -6%
COc1ccc(NC(=O)C(c2ccc(C)cc2)N(C)C(=O)c2ccc(=O)[nH]c2)cc1 (stereo not given)
    -11% | -3%
O=C(CSc1ccc2c(c1)OCCO2)Nc1ccc(Br)cc1
    -11% | -7%
Cc1ccc2nc(N(CCN(C)C)C(=O)c3ccc4ccccc4c3)sc2c1
    i | -13%
COc1ccc(CCN2CC(C(=O)NCC3(O)CCCCC3)CCC2=O)cc1 (stereo not given)
    i | -14%
O=C(CCN1C(=O)c2cccc3cccc(c23)C1=O)N1CCN(c2ccccc2F)CC1
    i | -5%
Cc1ccc2c(c1)c(=O)c(S(=O)(=O)c1ccc(C)c(C)c1)cn2CC(=O)Nc1ccccc1
    -25% | -22%
C[C@H](CO)N1C[C@H](C)[C@H](CN(C)C(=O)Nc2ccc(C(F)(F)F)cc2)Oc2ncc(-c3cccnc3)cc2C1=O
    -13% | -16%
O=C(Cc1cccs1)Nc1nc2ccccc2s1
    nt | -30%
CC1C/C(=N\Nc2ccc(S(N)(=O)=O)cc2[N+](=O)[O-])CC(C)(C)C1 (stereo not given)
    -4% | ?
N#Cc1c(-c2cccs2)nc(SCC(=O)c2cccs2)[nH]c1=O
    nt | 17%
O=C(NC1CCCC1)C(C1CC1)n1c(C2CC2)nc2ccccc21 (stereo not given)
    -6% | 20%
COc1ccc(OC)c(C(=O)c2ccc(C(=O)Nc3ccc4ccccc4c3)cc2)c1
    -2% | -6%
Clc1ccc(-c2nnc3n2-c2ccccc2SC3)cc1
    -12% | -19%
Oc1ccc(CN2CCN(c3ccccc3)CC2)c2cccnc12
    -27% | -22%
CC(CCc1ccccc1)NC(=O)COC(=O)C12CC3CC(CC(Br)(C3)C1)C2 (stereo not given)
    -11% | -11%
Cc1cc([N+](=O)[O-])ccc1NCc1cccc([N+](=O)[O-])c1
    -30% | -21%
CC1(C(=O)NCC2CC2)CCN1C(=O)C/C=C/c1ccccc1 (stereo not given)
    38%[activator] | -4%
CC1(C(=O)NS(=O)(=O)c2cccs2)CCN1C(=O)C1(c2ccc(Cl)cc2)CC1 (stereo not given)
    0% | 12%
O=S1(=O)CCOC[C@H](Cc2ccccc2)N1Cc1ccc(F)cc1
    -3% | ?
COC1=CC(=O)OC(c2ccccc2C(F)(F)F)C1 (stereo not given)
    -10% | -24%
CCCCn1c(O)c2n(c1=O)Cc1ccccc1N=C2c1ccccc1
    12% | 2%
COc1ccc(CCN2C(=O)NC(NS(=O)(=O)c3ccccc3)(C(F)(F)F)C2=O)cc1OC (stereo not given)
    i | -6%
CCOC(=O)N/N=C\c1ccc(OC/C=C/c2ccccc2)cc1
    -1% | -15%
CC(C)Nc1ccc(C(CC(N)=O)NC(=O)Cc2ccc(Br)cc2)cc1[N+](=O)[O-] (stereo not given)
    i | ?
O=S(=O)(Nc1ccc(S(=O)(=O)N2CCCC2)cc1)c1ccc(F)cc1
    -19% | -6%
O=C1NC(=O)c2c(NC(=O)C3CCCO3)cccc21 (stereo not given)
    -14% | -1%
Cc1cc(C)c2nc(-c3ccccn3)cc(C(=O)Nc3cc(C)on3)c2c1
    nt | -4%
CCOc1ccc(C(=O)Oc2c(Sc3ccccc3)c(C)nn2C(C)(C)C)cc1OCC
    -23% | -15%
CC(C)=CCC/C(C)=C/CNC(=O)C[C@H]1C[C@H](C(=O)N2CCCCC2)[C@@]2(C)c3[nH]c4cc(CCC(=O)N(C)C)ccc4c3CCN2C1=O
    -21% | ?
O=C(Nc1ccc(Cl)cn1)C1CCCN1S(=O)(=O)c1ccc(Cl)cc1 (stereo not given)
    -14% | -16%
O=[N+]([O-])c1ccc2c(c1)C(=Nc1ccccc1)c1ccccc1-2
    -21% | -11%
O=C(Nc1ccc2oc(-c3ccc4ccccc4c3)nc2c1)c1cc(Cl)ccc1Cl
    0% | -12%
Oc1cccc(NC(=S)N=Nc2c(O)[nH]c3ccccc23)c1
    -5% | -18%
C[N+]1(CC(=O)c2ccc3ccccc3c2)CCOCC1
    14% | 7%
CC(C)[C@H](NC(=O)c1ccc(Cl)cc1Cl)C(=O)NNC(=O)c1ccco1
    -5% | -9%
Cc1cccc(/C=C2\CCC(=C3SCCCS3)C2=O)c1
    -23%[1.46 µM] | ?
CCCCn1c(N)c(N(CCC(C)C)C(=O)c2cccc(S(=O)(=O)N3CCN(C)CC3)c2)c(=O)[nH]c1=O
    -14% | -15%
COc1ccc(N(CC(=O)Nc2ccc(OC)cc2OC)S(=O)(=O)c2ccccc2)cc1
    -29% | ?
COc1cc(C(O)c2nc(-c3ccccc3)cs2)ccc1F (stereo not given)
    -17% | -20%
CC(=O)NC(C)c1nc2ccccc2n1Cc1ccccc1Cl (stereo not given)
    -5% | -5%
FC(F)(F)C1=NNC(c2ccc3ccccc3c2)=NN1
    -6% | -3%
O=c1[nH]c2ccccc2n1C1CCN(Cc2ccc(-c3nc4ccc(F)cc4nc3-c3ccccc3)cc2)CC1
    ? | ?
COc1ccc(-n2c(-c3ccccc3)nc3ccccc3c2=O)cc1
    4% | -7%
O=C(Nc1ccc(-c2cn3c(n2)SCC3)cc1)c1ccc2ccccc2n1
    -11% | -16%
CCc1ccc(NS(=O)(=O)c2ccc(NC(=O)N3CCCC3)cc2)cc1
    -19% | -12%
Cc1ccc(S(=O)(=O)CCC(=O)c2ccc(F)cc2)cc1
    -7% | -19%
O=C(CSc1nc(-c2ccccc2)c(-c2ccccc2)[nH]1)Nc1nccs1
    ? | -29%
CC1CCN(S(=O)(=O)c2ccc3c(c2)N(CC(=O)NCCCN2CCCCC2)C(=O)CS3)CC1
    -12% | -7%
CCOc1ccc(C(=O)C2CCN(CC(=O)Nc3nccs3)CC2)cc1
    -26% | -4%
Cc1cc(N2CCN(C(=O)OC(C)(C)C)CC2)n2ncnc2n1
    -20% | -10%
CCN(c1ccccc1)S(=O)(=O)c1c(C)nc2scc(C)n2c1=O
    1% | -5%
CCOC(=O)c1c(NC(=O)C2C3C=CC(CC3)C2C(=O)O)sc(C)c1C (stereo not given)
    -22% | -5%
COc1ccc(CNc2nc(-c3ccccc3OC)nc3ccccc23)c(OC)c1
    -4% | -4%
CC(C)C12NC(=O)NC(=O)N1CCS2 (stereo not given)
    -16% | -17%
CCOC(=O)CC1NC(=O)c2ccccc21 (stereo not given)
    i | -7%
CC(=O)N1CN(CCCn2ccnc2)Cc2c1sc1c2CCCC1
    -17% | -15%
O=C(NCc1cccs1)c1cc(C2CC2)on1
    i | -15%
COc1ccc(CNC(=O)c2cncc(Br)c2)cc1
    -8% | -5%
CC(NC(=O)NC1CCCCC1)c1ccc2c(c1)OCO2 (stereo not given)
    i | -10%

# The list continues:
# The line under a structure holds: Vaccinia mCherry | Vaccinia Venus
COCCN1C(=O)CSCC1(C)C(=O)NC(C)C (stereo not given)
    -4% | -6%
Cc1ccc(S(=O)(=O)NC(=O)Nc2ccc(F)c(F)c2)cc1
    14% | -2%
NC(Cc1ccc(Cl)cc1)c1csc(Nc2nccc(C(F)(F)F)n2)n1 (stereo not given)
    2% | -23%
CCOC(=O)c1ccc(NC(=O)c2nc[nH]c2C(=O)N[C@@H](C)CO)cc1
    ? | -26%
CN(C)c1nc(NCc2ccccc2)nc(SCC(=O)Nc2ccccc2)n1
    -15% | -5%
Clc1ccccc1Nc1nc(NCC2CC2)nc2ccsc12
    -18% | -25%
CCC(C)CCCCCCCCCCC(=O)O (stereo not given)
    -9% | -5%
Cc1ccc(OCC(O)CNCc2ccccc2)cc1C (stereo not given)
    -11% | ?
CC(C)C(NC(=O)C(Cc1ccc(O)cc1)NC(=O)C(NC(=O)C(F)(F)F)C(C)C)C(=O)O (stereo not given)
    10% | 12%
CCN(CC)S(=O)(=O)c1ccc(O)c(NC(=O)c2ccc(N3CCOCC3)c([N+](=O)[O-])c2)c1
    -27% | -15%
N/C(=N\OC(=O)Cc1ccccc1[N+](=O)[O-])c1ccccn1
    5% | -7%
CCOC(=O)/C(C#N)=C/c1cc2cc(C)c(C)cc2nc1Cl
    -8% | -12%
COc1cc(=O)n2c(c1C(=O)N(C)Cc1cscn1)CCN(Cc1ccc3c(c1)OCCO3)CC2
    -17% | 0%
CC(C)CC1C(=O)N(Cc2cn(CC3CCCCC3)nn2)CCS(=O)(=O)N1Cc1ccc(-c2ccc(Cl)c(Cl)c2)cc1 (stereo not given)
    -4% | ?
Cn1nnnc1SCCNCc1ccc(OCc2ccccc2Cl)cc1
    i | -19%
O=C(c1ccc(F)cc1)N1CCN=C1c1ccccc1
    -15% | -15%
CC(C)c1ccccc1NC(=O)CN(c1ccccc1)S(=O)(=O)N(C)C
    -12% | 3%
CSc1nnc(C(C)(C)C)c(=O)n1/N=C/c1ccc(C(C)C)cc1
    -12% | 1%
Cc1ncsc1C(=O)N1CCCC(C(=O)c2ccc3ccccc3c2)C1 (stereo not given)
    ? | -20%
CCC(=O)c1ccc(N2CCOCC2)c(F)c1
    -4% | -15%
Cc1ccc(CNc2nc3ccccc3n3cnnc23)cc1
    -15%&-13% | -6%&-30%
CCN(CC(=O)NC1CCCCC1)S(=O)(=O)c1ccc(Cl)cc1
    nt | -18%
COC(=O)[C@@H](NC(=O)c1ccc(OC2CCN(Cc3ccccn3)CC2)cc1)C(C)C
    i | 0%
N#CCCN(Cc1ccccc1)C(CCc1ccccc1)C(=O)NC1CCCCC1 (stereo not given)
    15% | -16%
CCOc1ccc(/C=C2/SC(=S)N(n3c(C)ccc3C)C2=O)cc1
    -11% | -12%
COc1cc(NC(=O)CCNC(=O)N2CC(=O)Nc3ccccc32)cc(OC)c1OC
    i | -2%
CC(C)c1ccc2occ(-c3nn[nH]n3)c(=O)c2c1
    i | 9%
C1=CC2CC1CC2CN1CCN(Cc2ccccc2)CC1 (stereo not given)
    nt | -18%
N/C(Cc1cccc2ccccc12)=N\OC(=O)c1ccccc1F
    i | -8%
COc1ccc(C(c2nnnn2Cc2cccs2)N2CCN(c3ccccc3F)CC2)cc1 (stereo not given)
    -8% | -16%
Cc1nc2c(C(=O)NCc3ccccc3Cl)c[nH]n2c(=O)c1Cl
    i | -10%
Cc1sc2ccccc2[n+]1Cc1ccccc1
    -3% | 2%
CC(=O)Nc1c(S(=O)(=O)c2ccccc2)c2nc3ccccc3nc2n1Cc1ccccc1
    nt | -19%
CCN(CC)CCNC(=O)c1cn(CC)c2ccc(S(=O)(=O)N3CCc4ccccc4C3)cc2c1=O
    -22% | -14%
N#Cc1c(NC(=O)CS(=O)(=O)c2ccc(Cl)cc2)sc2c1CCCCC2
    -16% | -14%
Cc1ccc(CN(C(=O)COc2ccc(Cl)cc2Cl)C2CCS(=O)(=O)C2)o1 (stereo not given)
    5% | -1%
CN(C)CCCNC(=O)c1ccc(Oc2ccccc2)cc1
    i | -8%
O=C(CNC(=O)c1ccccc1F)OC1CCOC1=O (stereo not given)
    -6% | -6%
O=S1(=O)CC(N2CCC(Cc3ccccc3)CC2)CN1Cc1ccc(F)cc1 (stereo not given)
    i | -20%
O=C(COC(=O)Cn1cnc2ccccc21)Nc1ccc(Br)cc1
    -9% | -18%
CC1=C(C#N)C(NC(=O)c2ccc(Cl)cc2)(C(F)(F)F)C(=O)N1 (stereo not given)
    -16% | -14%
Nc1cccc(S(=O)(=O)c2ccc(N)c(N)c2)c1
    1% | -1%
Cc1ccc(-n2ncc(-c3nnc(SCC(=O)NC4CCCC4)o3)c2N)cc1C
    ? | -28%
CCOc1ccc(N2C(=O)CSC2=NC#N)cc1
    i | 0%
COc1ccccc1N1CCN(C(=O)CCCNC(=O)Cn2cnc3sc(C)c(C)c3c2=O)CC1
    ? | -14%
O=C(COc1ccc(-c2ccccc2)cc1)NNC(=O)NC1CCCCC1
    -5% | -8%
